# Screens: PubChem, Broad Institute
# STK33 inh: inhibitors of human STK33 kinase; hit rate 0.073% among 320,000; inhibition, % at 10 µM; Q9BYT3; AID 2661; purified STK33, MBP phosphorylation, ADP-Glo luminescence;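 active = inhibition at or above 25%, using the most active replicate where run in duplicate; inactive = inhibition below 25%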
# Target sequence (Q9BYT3 whole entry, looked up): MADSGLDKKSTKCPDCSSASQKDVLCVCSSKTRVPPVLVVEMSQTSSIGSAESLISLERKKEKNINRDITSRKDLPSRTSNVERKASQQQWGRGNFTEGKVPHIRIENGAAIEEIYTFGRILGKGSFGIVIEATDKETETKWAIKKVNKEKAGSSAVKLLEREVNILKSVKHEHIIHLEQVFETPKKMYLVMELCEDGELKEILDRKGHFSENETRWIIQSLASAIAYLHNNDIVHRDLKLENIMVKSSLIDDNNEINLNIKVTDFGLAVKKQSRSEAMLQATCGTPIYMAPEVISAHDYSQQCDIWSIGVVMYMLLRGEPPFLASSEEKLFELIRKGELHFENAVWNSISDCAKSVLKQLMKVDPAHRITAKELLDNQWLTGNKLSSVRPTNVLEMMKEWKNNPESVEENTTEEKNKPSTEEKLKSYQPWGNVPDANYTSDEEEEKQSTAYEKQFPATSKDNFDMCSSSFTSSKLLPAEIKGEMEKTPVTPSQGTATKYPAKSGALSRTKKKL
# An asterisk follows results filed as active. The list is partial; most or all hits stand in other tables.
Compound	STK33 inh
CCN(c1ccccc1)S(=O)(=O)c1ccc(Oc2ccccc2C(C)=O)nc1	-0.8
Brc1ccccc1-c1nnc(COc2ncnc3c2cnn3-c2ccccc2)o1	-1.3
CC(C)(C)NC(=O)C1CCN(S(=O)(=O)c2cccc(C(F)(F)F)c2)CC1	-1.0
Cc1ccc(/C=N\NC(=O)Cc2cccn2C)o1	1.1
CCOc1ccc2nc(SCC(=O)NCc3ccccc3OC)[nH]c2c1	-2.8
O=C(Nc1nncs1)c1cc(-c2ccncc2)nc2ccc(Cl)cc12	1.5
CC1(OC(=O)C2CCCC2)C(=O)C=C2C=C(c3ccsc3)N(Cc3ccccc3)C=C2C1=O (stereo not given)	-1.4
CC1(C)CC(=O)C2=C(C1)OC(N)=C(C#N)C2c1ccccc1 (stereo not given)	-0.6
Cc1ccc(-n2nc3c(=O)n(CCCC(=O)NCc4ccc(Cl)cc4)nc(C)c3c2C)cc1	1.0
CC(=O)c1ccc(S(=O)(=O)N2CCC(C(=O)Nc3ncc(C)s3)CC2)cc1	1.7
NNc1nc2c(-c3ccc(Cl)cc3)nnn2c2ccccc12	-0.3
Cc1ccc(NS(=O)(=O)c2ccc(N3CCN(c4ccc(O)cc4)CC3)c([N+](=O)[O-])c2)c(C)c1	0.2
CC(c1ccccn1)N(Cc1ccco1)C(=S)Nc1cccc(F)c1 (stereo not given)	1.6
CNC(=O)C1CCN(S(=O)(=O)c2c(C)noc2/C=C/c2ccc(OC)cc2)CC1	0.6
O=C(Cn1c(=O)oc2ccccc21)N1CCCC1	-1.1
CN(C)c1ccc(/C=N/c2cc(-c3ccccc3)nn2-c2ccccc2)cc1	1.7
Cc1ccc(CCN2C(=O)CCC2(C)C(=O)NCc2cccnc2)cc1 (stereo not given)	-1.0
Cc1cc(C)cc(OCC(=O)OCC(=O)NC2CCCCCCC2)c1	-0.8
COc1ccc2cc(CCN3C(=O)c4ccccc4C3=O)c(=O)[nH]c2c1	0.3
COc1ccc(CNC(=O)C2=CC(c3ccc(OC)cc3)=NS(=O)(=O)N2C)cc1	-0.2
COc1ccc(CCn2c(-c3ccco3)nc3nc4ccccc4nc32)cc1	0.0
C[C@@H](NC(=O)[C@@H]1Cc2ccccc2CN1C(=O)OC(C)(C)C)C(=O)NC1CCCC1	-0.6
O=C(Nc1ccccc1)C1C2/C=C\CCCCC21 (stereo not given)	-0.6
CS(=O)(=O)N1CCCC(C(=O)NCc2ccco2)C1 (stereo not given)	-0.6
CCCn1c(C(C)NS(=O)(=O)c2ccccc2)n[nH]c1=S (stereo not given)	2.2
O=C(Nc1nnc(/C=C/c2ccccc2)s1)c1ccco1	0.4
COC(=O)C(C)N(C(=O)c1cccc2ccccc12)c1c(C)cccc1C (stereo not given)	-0.8
COc1cccc(NC(=O)C2CC(=O)N=C(N)S2)c1 (stereo not given)	-1.4
COc1ccc(-n2nc(C(=O)NCC(=O)Nc3ccccn3)c3ccccc3c2=O)cc1	-0.1
Cc1ccc2cccc(NS(=O)(=O)c3ccccc3)c2n1	0.4
Cc1cc(S(=O)(=O)Nc2ccc(C(=O)NCCCN3CCCC3=O)cc2)ccc1F	-0.1
C=CCNc1nc(N2CCCCC2)c(C#N)c2c1CN(Cc1ccccc1)CC2	-0.2
Cc1cccc2cc(C#N)c(N3CCC(O)CC3)nc12	-1.4
O=C(c1cnccn1)N1CCCC(N2CCN(c3cccc(Cl)c3)CC2)C1 (stereo not given)	-0.2
C[C@@H]1O[C@@H](O[C@H]2[C@H](O[C@H]3C[C@]4(C)C(C[C@@H](O)C5C([C@]6(C)CC[C@@H](C(C)(C)O)O6)CC[C@]54C)[C@@]4(C)CC[C@H](O)C(C)(C)C34)O[C@H](CO)[C@@H](O)[C@@H]2O)[C@H](O)[C@H](O)[C@H]1O (stereo not given in full)	-0.1
CCc1c(C)nc2[nH]nc(-c3ccccc3C)n2c1=O	-0.3
CCCc1cc(=O)oc2c(C)c(OCC(=O)NCCN3CCOCC3)ccc12	-0.3
Cc1ccc(C)c(OCCNc2ccc([N+](=O)[O-])cn2)c1	-0.5
CC(C)(C)NS(=O)(=O)c1cc(C(=O)O)ccc1Cl	0.1
CCOC(=O)Cc1csc(NC(=O)c2ccc(C)o2)n1	0.1
CCN(Cc1ccncc1)C(=S)NCc1ccccc1	-0.5
COc1ccc(-c2[nH]ncc2CN2CCC(OCc3ccccc3)CC2)c(F)c1	0.0
COc1ccc(NC(=S)N2CCNC(=O)C2CC(=O)Nc2ccc(C)cc2)cc1 (stereo not given)	-0.6
Cc1nnc(SCC(=O)Nc2ccc3c(c2)COC3=O)n1-c1ccccc1	-0.5
Nc1nc2ccc(Cc3ccncc3)cc2s1	0.1
Cc1cc(C(=O)CSc2nc(N)cc(=O)[nH]2)c(C)n1CC1CCCO1 (stereo not given)	0.5
O=C(CSc1ncnc2ccccc12)NCc1ccc2c(c1)OCO2	-4.4
CCOC(=O)CSc1nc(N)cc(=O)[nH]1	-1.6
CC(C)O/N=C1\C(=O)N(c2ccccc2)c2ccccc21	-3.3
Cc1ccc2[nH]cc(C(=O)CN3CCC4(CC3)OCCO4)c2c1	0.4
COc1cc([N+](=O)[O-])ccc1NC(=O)NCc1ccccn1	-0.2
CC(C)c1nnc(NC(=O)CCC(=O)Nc2ccc(Cl)cc2)s1	-1.4
CNC(=S)N(CCCn1ccnc1)Cc1c(F)cccc1Cl	0.2
COc1ccc(NC(=O)c2ccccc2NS(=O)(=O)c2ccc(C)cc2)c([N+](=O)[O-])c1	-1.1
O=C(CCCN1C(=O)/C(=C\c2cccs2)SC1=S)Nc1ccccn1	-3.7
CC(C)(C(=O)c1ccccc1)/[N+]([O-])=C/c1ccccc1	-0.3
Cc1noc(N)c1C(=O)Nc1ccc(F)cc1	-1.0
COc1ccc(NC(=O)C(OC(=O)c2ccc([N+](=O)[O-])o2)c2ccccc2)cc1Cl (stereo not given)	0.0
COc1ccc(Nc2cc(C)nc3ccc(OC)cc23)cc1	5.6
COc1ccc(CCNC(=O)C23CN(Cc4ccccc4)CC2C(c2cccc([N+](=O)[O-])c2)=NO3)cc1 (stereo not given)	-1.0

# The list goes on.
Compound	STK33 inh
O=C1c2cccc3cccc(c23)C(=O)N1c1ccccc1Cl	-0.2
COc1cc2[nH]c(=S)n(Cc3ccc(C)cc3)c(=O)c2cc1OC	0.1
CC12CN3CCN(CC(C3)/C1=N/N=C/c1cccc([N+](=O)[O-])c1)C2	0.0
CCN(C(=O)c1c(-c2ccccc2Cl)noc1C)C1CCCCC1	-2.1
Cc1cc(Cn2nc(C(=O)NCC3CC3)cc2-c2ccccc2)on1	1.1
COc1ccc(OCC(O)CNC(=O)Nc2ccccc2)cc1 (stereo not given)	0.4
OCCNCc1cc(Br)ccc1OCc1ccccc1Cl	-2.0
O=C(COc1ccc(Cl)cc1Cl)NNC(=S)NCc1ccco1	-1.4
Cc1nc2c(c(-c3ccccc3)c1C#N)C(=O)c1ccccc1-2	-4.7
O=C(Nc1ccc(Nc2ccccc2)cc1)Nc1ccccc1Cl	-0.1
O=C(O)CNC(=O)c1ccccc1NC(=O)c1ccco1	-0.5
CCN(CC)CCNC(=O)C(=O)Nc1ccc2c(c1)N(S(=O)(=O)c1cccs1)CCC2	-0.1
N#Cc1c(-c2ccccc2F)cc(C2CC2)nc1SCC(=O)c1cccs1	0.4
Cc1oc(-c2ccccc2Cl)nc1CS(=O)(=O)CC(=O)NCCc1ccccc1	-1.2
COc1ccc(N2CS(=O)CC2=O)cc1 (stereo not given)	7.3
O=C(ONC1=NCCCCC1)c1c(F)cccc1F	4.4
COCC[N+]1(C)CCCCC1	-1.0
Cc1c(Cc2ccccc2)c(NCCCO)n2c(nc3ccccc32)c1C#N	-1.8
C/C(=N\NC(=O)c1ccccc1F)c1ccc(C#N)cc1	-1.1
COc1ccc(N2CCN(S(=O)(=O)c3ccc4c(c3)N(C(C)=O)CCO4)CC2)cc1	-1.6

# Structures listed so far that have bromine, in the order listed:
Compound	STK33 inh
Brc1ccccc1-c1nnc(COc2ncnc3c2cnn3-c2ccccc2)o1	-1.3
OCCNCc1cc(Br)ccc1OCc1ccccc1Cl	-2.0

# (further entries)
Compound	STK33 inh
COc1cc(C(=O)N/N=C/c2ccc(OC(=O)c3cccc(C)c3)c(OC)c2)ccc1O	-0.2
Cc1ccc(OCCC(=O)N(Cc2ccccc2)c2c(N)n(Cc3ccccc3)c(=O)[nH]c2=O)cc1	-0.8
O=C(NCc1n[nH]c(=S)n1-c1ccccc1Cl)c1ccc(S(=O)(=O)N2CCCCC2)cc1	-1.2
O=C(Nc1ccccc1)N1CCCC2CCCCC21 (stereo not given)	0.9
CC(C)(C)OC(=O)C[C@H]1C/C=C\C[C@H](CC(=O)N[C@H](CO)Cc2ccccc2)C(=O)N[C@H](C(C)(C)C)COC1=O	3.2
CCCNC(=O)c1onc(CSc2ccncc2)c1C(=O)NCCC	-1.5
Cc1cc(O)cc2c1O[C@@](C)(CCC[C@@H](C)CCC[C@@H](C)CCCC(C)C)CC2	-0.2
CCN(CC)S(=O)(=O)c1ccc(C)c(NC(=O)/C=C/c2cccs2)c1	0.2
COC(=O)c1ccccc1NC(=S)NC(=O)c1ccc2ccccc2c1	0.4
COc1ccc(S(=O)(=O)Nc2cccc(N(C)S(C)(=O)=O)c2)cc1C	-0.8
Cc1ccc[n+](/C(C(=S)NCc2ccco2)=C(/[O-])c2ccccc2Cl)c1	0.2
COc1ccc(N(C(=O)c2ccn[nH]2)C(C(=O)NC(C)(C)C)c2ccc(F)cc2)cc1 (stereo not given)	0.0
COC(=O)c1sc(N)nc1C(C)(C)C	0.6
O=c1cc[nH]c2c(C(F)(F)F)cccc12	-0.2
CN(NS(=O)(=O)c1cccs1)c1ncc(C(F)(F)F)cc1Cl	-2.2
O=C1C2C3CCCC3=C3CCCC3C2C(=O)N1c1cccc(Cl)c1 (stereo not given)	0.6
O=c1c2cc(NC(=S)NC3CCCCC3)ccc2nc2n1CCCCC2	0.4
COC(=O)c1cc(OC)c(OC)cc1NC(=O)c1ccccc1	-0.8
CCn1ncc(C2=NOC(C(=O)Nc3cccc(C(C)=O)c3)C2)c1C (stereo not given)	-0.9
COC(=O)Cc1ccc(NC(=S)Nc2cccc(C)n2)cc1	-2.0

# Three compounds out of the list, arranged by formula weight, descending:
Compound	STK33 inh
COc1ccc(N(C(=O)c2ccn[nH]2)C(C(=O)NC(C)(C)C)c2ccc(F)cc2)cc1 (stereo not given)	0.0
Cc1ccc[n+](/C(C(=S)NCc2ccco2)=C(/[O-])c2ccccc2Cl)c1	0.2
CCn1ncc(C2=NOC(C(=O)Nc3cccc(C(C)=O)c3)C2)c1C (stereo not given)	-0.9

# Next section.
Compound	STK33 inh
Nc1nonc1C(=O)NCCNC(=O)c1ccc(Cl)cc1	-0.6
CC(C)[C@H](NC(=O)C1CCN(S(=O)(=O)c2ccc(F)cc2)CC1)C(=O)N1CCCCCC1	-2.0
NC(=O)c1nsc(C(=O)N(Cc2ccco2)C(C(=O)NCc2ccccc2)c2ccc(O)cc2)c1N (stereo not given)	0.5
CC(=O)Nc1ccc(Nc2ncnc3c2cnn3-c2ccc(C)cc2C)cc1	-0.5
Cc1nc(NC(=O)c2ccc(-c3cc4ccccc4oc3=O)cc2)ccc1Br	-2.1
CC(=O)Oc1ccc(N(C(C)=O)S(=O)(=O)c2ccc(C)cc2)c2ccccc12	1.0
CCOC(=O)CSc1nnc(-c2cccc(Cl)c2)n1CC	-1.1
CCOC(=O)C(NC(C)=O)C(OC(C)=O)c1cccc(N(CCO)CCO)c1 (stereo not given)	-1.1
O=C(Nc1ccc(-c2nc3cccnc3s2)cc1)C1CCCO1 (stereo not given)	14
O=C(c1ccco1)[C@@H]1[C@@H]2C(=O)N(c3ccc(F)cc3)C(=O)[C@@H]2C2c3ccccc3C=CN21 (stereo not given in full)	0.2
CCC(=O)Nc1ccc(/C(C)=N/NC(=O)c2c(Br)c(C)nn2C)cc1	-1.3
Cc1ccc2[nH]c(=O)c(C(c3nnnn3C3CCCC3)N3CCCc4ccccc43)cc2c1 (stereo not given)	-0.1
O=C(O)c1ccc(CSc2nnc(-c3ccccc3)n2-c2ccccc2)cc1	-1.2
COc1ccc(Cl)cc1NC(=O)C(C)NC(c1ccccc1)c1ccccc1 (stereo not given)	-1.1
N=c1c(S(=O)(=O)c2ccc(Cl)cc2)cc2c(=O)n3ccccc3nc2n1C1CCCCC1	0.2
CC(C)Cn1c(SCC(=O)Nc2ccc3[nH]c(=O)[nH]c3c2)nc2ccccc2c1=O	2.1
CC1CCCCN1S(=O)(=O)c1ccc(S(=O)(=O)N(CC(=O)Nc2ccccc2)Cc2cccs2)cc1 (stereo not given)	-1.1
C=CCn1c(COc2cccc3ccc(C)nc23)nnc1SCC(=O)O	-0.7
CN(Cc1cc2cc(F)ccc2[nH]1)Cc1nc(-c2cnccn2)no1	1.0
CCN(CC)S(=O)(=O)c1cccc2cccnc12	0.8
CC(C(=O)Nc1sccc1C(N)=O)N1C(=O)C2CC=CCC2C1=O (stereo not given)	-2.5
Cc1onc(-c2ccccc2Cl)c1C(=O)Nc1ccc(-c2nnc3n2CCCCC3)cc1	-0.6
Cc1ccc(C(O)P(=O)(OC2CCCCC2)OC2CCCCC2)cc1 (stereo not given)	-1.0
CC(=O)c1cccc(NS(C)(=O)=O)c1	-0.2
CCN(CC)CCOc1ccc(/C(=C(\Cl)c2ccccc2)c2ccccc2)cc1	1.1

# Gathered by group, the compounds so far with a COOH group (four)
Compound	STK33 inh
CC(C)(C)NS(=O)(=O)c1cc(C(=O)O)ccc1Cl	0.1
O=C(O)CNC(=O)c1ccccc1NC(=O)c1ccco1	-0.5
O=C(O)c1ccc(CSc2nnc(-c3ccccc3)n2-c2ccccc2)cc1	-1.2
C=CCn1c(COc2cccc3ccc(C)nc23)nnc1SCC(=O)O	-0.7
